AmpC nodet inh: blocks E. coli AmpC beta-lactamase in absence of detergent | P00811 | AmpC nitrocefin hydrolysis, absorbance 480 nm, no detergent; potencies from a single point are estimates | Potency, µM (doses to about 28.7 µM), for the others: top-dose activity change, negative = inhibition | hit rate 1.8% among 71,000 | AID 585; active = falling curve, for most hits resting on a single point; inconclusive = weak or doubtful change; inactive = flat or rising curve; note: % of control where 0% means no effect; about half of the hits show no inhibition at the top dose; a quarter of the inactives give rising signals
Target sequence (P00811 whole entry, looked up): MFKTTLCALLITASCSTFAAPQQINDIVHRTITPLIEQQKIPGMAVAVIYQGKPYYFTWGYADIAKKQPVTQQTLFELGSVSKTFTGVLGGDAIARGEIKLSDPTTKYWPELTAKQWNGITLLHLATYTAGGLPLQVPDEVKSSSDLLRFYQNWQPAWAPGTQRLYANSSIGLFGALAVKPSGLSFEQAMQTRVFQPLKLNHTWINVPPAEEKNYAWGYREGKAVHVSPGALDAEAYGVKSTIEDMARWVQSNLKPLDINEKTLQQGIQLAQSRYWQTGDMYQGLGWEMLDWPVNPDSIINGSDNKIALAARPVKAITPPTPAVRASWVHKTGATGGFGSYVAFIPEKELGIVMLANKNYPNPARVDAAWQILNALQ
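AmpC, 20 mM phosphate pH 7.0; 15 min cpd preinc, RT; start with nitrocefin (800 uM stock); A480 kinetic read, 20 s intervals, 4 min. No-enzyme wells = negative control.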
Starred values were filed as active, the others as inactive; u = inconclusive; & = joins results of further samples; [ ] = remark or other dose. Potency is the fitted concentration of half-maximal effect. Only part of the results is shown. The share of hits here may be higher or lower than overall.

The first 3 compounds (preview)
SMILES	AmpC nodet inh
CCOc1ccccc1N1CSC2=C(C#N)C(c3c(OC)ccc4ccccc34)CC(=O)N2C1 (centres undefined)	2.51µM*[single pt active]
COc1ccc(NC(=O)N2CCN(c3cccc(C(F)(F)F)c3)CC2)cc1	-16.2%
Cn1c(=O)[nH]c(=O)c2c1nc(Sc1nc3ccccc3s1)n2Cc1ccccc1	76.1%

Results, from the first entry:
SMILES	AmpC nodet inh
CCOc1ccccc1N1CSC2=C(C#N)C(c3c(OC)ccc4ccccc34)CC(=O)N2C1 (centres undefined)	2.51µM*[single pt active]
COc1ccc(NC(=O)N2CCN(c3cccc(C(F)(F)F)c3)CC2)cc1	-16.2%
Cn1c(=O)[nH]c(=O)c2c1nc(Sc1nc3ccccc3s1)n2Cc1ccccc1	76.1%
CCOc1ccccc1Nc1nc2ccccc2n2cnnc12	-6.0%
Cc1cc(C)c2oc(=O)cc(CN3CCN(Cc4ccc5c(c4)OCO5)CC3)c2c1	89.4%
C[N+](C)(C)Cc1ccccc1	-10.7%
CCOC(=O)CSc1nnc(CNC(=O)c2cccs2)n1-c1ccccc1	12.9%
COc1ccc(-c2nn3c(-c4ccncc4)nnc3s2)cc1OC	0.5%
Cc1ccc2c(CN3CCN(Cc4ccc5c(c4)OCO5)CC3)cc(=O)oc2c1C	92.2%
CC(C)C(C(=O)N1CCOCC1)N1C(=O)c2ccccc2C1=O (centres undefined)	-12.7%
OC1CCN(Cc2cccc(Oc3ccccc3)c2)CC1	18.1%
CN1/C(=C\C(=O)Nc2cccnc2)c2ccccc2CC1(C)C	4.2%
CCOC(=O)N1CCC(NC(=O)C2CCCN(C(=O)c3cc4sccc4n3C)C2)CC1 (centres undefined)	131.4%
CC(=O)N1CCC(N2CCN(c3ccccc3F)CC2)CC1	1.7%
Cn1nnnc1SCC(=O)N1c2ccccc2CCc2ccccc21	19.8%
CCCn1c(SCC(=O)c2cc(OC)ccc2OC)nnc1-c1ccco1	91.1%
COC(=O)c1coc(-c2ccc(C)cc2)c1C(=O)OC	17.1%
CC(C)(C)C1CCC(=O)C(C2(O)C(=O)Nc3ccccc32)C1 (centres undefined)	15.4%
c1ccc(C(OCCN2CCNCC2)c2ccccc2)cc1	-3.8%
CN(Cc1ccco1)c1ncnc2ccc(-c3cccc(C#N)c3)cc12	32.6%
CCOC(=O)C1=C(C)NC(=O)NC1c1ccc(OC(=O)c2ccco2)c(OC)c1 (centres undefined)	36.2%
CC(=O)c1cccc(NC(=O)c2ccc(NS(=O)(=O)c3c(C)noc3C)cc2)c1	-9.6%
Nc1ncnc2c1ncn2[C@H]1O[C@@H](C(=O)OCCO)[C@@H](O)[C@H]1O	0.9%[5.75 µM]
COc1ccccc1CNc1ccnc(-c2ccoc2)n1	24.4%
Cc1nc2c3c4c(sc3n3c(SCC(=O)NCc5ccco5)nnc3n2n1)COC(C)(C)C4	26.8%
O=C(COc1ccccc1)Nc1nc2ccccc2[nH]1	-4.6%
Cc1nc(NC(=O)c2ccccc2)sc1-c1csc(N)n1	-13.0%
COC(=O)C(C)NS(=O)(=O)c1ccc(NC(C)=O)cc1 (centres undefined)	-1.5%
C=CCn1c2ccccc2c2nnc(SCCCn3c(=O)[nH]c4ccccc43)nc21	20.6%
CC(C)(C)n1ncc2c(=O)n(CC(=O)NCc3ccccc3)cnc21	-9.4%
O=C(Nc1ccc2c(c1)OCO2)c1ccc(CN2CCOCC2)cc1	4.8%
O=C(CN1CCOCCOCCN(CC(=O)Nc2ccccc2)CCOCC1)Nc1ccccc1	93.4%
CCC(Sc1nc(C)cc(=O)[nH]1)C(=O)Nc1ccc(Cl)cn1 (centres undefined)	-6.6%
O=C(NCCc1ccccc1)C1CCN(c2nc3ccccc3o2)CC1	49.7%
O=C(CSc1nnc2ccccn12)NC(=O)NC1CCCCC1	-4.6%
Nc1ncnc2c1nc(Br)n2[C@@H]1O[C@H]2COP(=O)(O)O[C@@H]2[C@H]1O	-7.9%
Cc1ccc(NC(=O)Cn2cccc2)cc1C	-8.9%
CCN1C(=O)C(O)(CC(=O)c2cc(C)ccc2C)c2ccccc21 (centres undefined)	36.3%
O=C(c1ccncc1)N(Cc1ccco1)Cc1cc2ccccc2[nH]c1=O	5.0%
COc1ccc(NS(=O)(=O)c2cc(-c3nnnn3C)ccc2OC)cc1	3.4%
C/C(N)=C(/C#N)C(=O)CSc1nnc(-c2ccc(OC(F)F)cc2)o1	-10.9%
CCNc1ccc(C(=O)OCC)cc1NC(=O)c1cc(S(=O)(=O)N2CCOCC2)ccc1C	81.6%
CCN(CCCNC(=O)CN(C)S(=O)(=O)c1cccc2nsnc12)c1cccc(C)c1	95.1%
CCN(C(=O)c1cn(CC)c(=O)c2cc(OC)c(OC)cc12)c1ccccc1C	72.1%
O=C(Nc1nccs1)c1cccc(NC(=O)C2CC2)c1	-6.9%
N#C/C(=C\c1ccc(O)c(O)c1)C(=O)NCc1ccccc1	-8.3%&-14.1%
COc1ccc(-c2nc3cnc(N4CCNCC4)nc3n(Cc3ccc(F)cc3)c2=O)cc1	-2.8%
COc1ccc(OC)c(C2CC(=O)N3CN(c4ccccc4)CSC3=C2C#N)c1 (centres undefined)	8.4%
COc1ccc(NC(=O)c2ccc(CN3CCN(c4ccccc4)CC3)cc2)cc1OC	93.0%
CCN(CC)CCCNC(=O)c1cn(CCOC)c(=O)c2c1c1ccccc1n2C	62.0%
COC(=O)C1=C(C)N(C)C(C)=C(C(=O)OC)C1c1ccsc1	32.0%
O=c1c2c3nc4ccccc4nc3n(-c3cccc(F)c3)c2ncn1Cc1ccc2c(c1)OCO2	23.6%
CC(=O)OC1CC2(C)C(=O)CCC2C2CCc3cc(O)ccc3C12 (centres undefined)	2.4%
CCCCOc1ccc(C(=O)NCc2ccccn2)cc1	20.4%
Cc1ccc(S(=O)(=O)Nc2nc(C)cc(NCCN)n2)cc1	-1.5%
CCOC(=O)C1(c2ccccc2)CCN(Cc2cccc(C(=O)O)c2)CC1	-8.9%
O=C(CSc1ncnc2c1oc1ccccc12)N1CCN(c2ccccc2)CC1	-8.0%
Cc1cc(C)n(C(=O)C23CC4CC(CC(C4)C2)C3)n1	-10.5%
CCOc1ccc(C2CC(c3cccc(C)c3)n3nc(N)nc3N2)cc1 (centres undefined)	30.6%
CC(=O)N(C(C)=O)c1c(N2CCOCC2)c2ccccc2oc1=O	-1.8%

7 structures from above, ordered by formula weight, lowest first:
SMILES	AmpC nodet inh
Cc1ccc(NC(=O)Cn2cccc2)cc1C	-8.9%
CCCCOc1ccc(C(=O)NCc2ccccn2)cc1	20.4%
CCN1C(=O)C(O)(CC(=O)c2cc(C)ccc2C)c2ccccc21 (centres undefined)	36.3%
Nc1ncnc2c1ncn2[C@H]1O[C@@H](C(=O)OCCO)[C@@H](O)[C@H]1O	0.9%[5.75 µM]
O=C(c1ccncc1)N(Cc1ccco1)Cc1cc2ccccc2[nH]c1=O	5.0%
CCOC(=O)CSc1nnc(CNC(=O)c2cccs2)n1-c1ccccc1	12.9%
O=C(CN1CCOCCOCCN(CC(=O)Nc2ccccc2)CCOCC1)Nc1ccccc1	93.4%

Next part
SMILES	AmpC nodet inh
CCOC(=O)C(C)n1cnc2c(nnn2Cc2ccc(Cl)cc2)c1=O (centres undefined)	34.1%
COc1ccc(CCNS(=O)(=O)c2ccc3c(c2)OCCO3)cc1	2.0%
O=S(=O)(Cc1ccccc1)N1CCn2c(nc3ccccc32)C1	3.5%
CCC(=O)N/C=C/n1cnc2cc(C(F)(F)F)ccc21	15.5%
COc1cc(C2N3CC4(C)CN2CC(C)(C3)C4)ccc1O (centres undefined)	-14.3%
O=c1cnc2cnc(N3CCOCC3)nc2n1Cc1cccs1	18.3%
CCC1(C)Cc2c(sc3c2c2ncnn2c2nnc(SCC(=O)NCc4ccco4)n32)CO1 (centres undefined)	23.0%
CCOC(=O)c1nnn(CC(=O)Nc2cc(Cl)ccc2C)c1C(=O)OCC	16.0%
CCCN(CCC)CCCNS(=O)(=O)c1cc(Br)cc2c1N(C(C)=O)CC2	8.6%
CC[C@H](C)[C@H](NS(=O)(=O)c1ccc(C)cc1)C(=O)N1CCC(C(=O)N[C@@H](C)C(=O)O)CC1	-3.4%
Cc1ccc(-n2c(=O)[nH]cc(C(=O)Nc3ccc4c(c3)OCO4)c2=O)cc1C	13.8%
COc1ccc(NC(=O)CSc2nc(-c3ccncc3)nn2CC(=O)N2CCCC2)cc1	36.8%
CCCCOc1ccc(-c2nnc(-c3ccco3)o2)cc1	64.4%
CCN(CC)S(=O)(=O)c1cccc(-c2nc3n(n2)Cc2ccccc2-3)c1	65.8%
Cc1ccccc1NC(=O)Cc1nc(CSc2nnc(C3CCCCC3)n2N)cs1	9.1%
O=C(Cn1nc(Cc2cccnc2)c2ccccc2c1=O)Nc1ccc2c(c1)OCO2	3.98µM*[single pt active]
O=C(NCCc1ccc(Cl)cc1)C1CCN(C(=O)c2sccc2-n2cccc2)CC1	71.1%
Cn1c(=O)oc2cc(S(=O)(=O)N3CCCC(C(=O)NCC4COc5ccccc5O4)C3)ccc21 (centres undefined)	110.7%
CC(=O)Nc1nc(-c2cccs2)cs1	-3.8%
CC1=C2C(=O)OC(c3ccoc3)C2(C)CCC1 (centres undefined)	-1.9%
O=C(NCCCn1ccnc1)c1cn(-c2ccccc2)nc1-c1ccc(F)cc1	67.6%
O=C(CCN1C(=O)c2ccccc2C1=O)N1CCN(Cc2ccc(Cl)cc2Cl)CC1	123.9%
O=C(CN1C(=O)COc2ccccc21)NCCN1CCc2ccccc2C1	8.7%
O=C(c1ccc2nc(-c3ccco3)c(-c3ccco3)nc2c1)N1CCN(c2ccccc2)CC1	74.0%
Cc1cc(C)n2c(SCC(=O)N3CCN(S(=O)(=O)c4ccc(Cl)cc4)CC3)nnc2n1	33.4%
C=CCc1ccccc1OCC(O)CN1CCN(Cc2ccc3c(c2)OCO3)CC1 (centres undefined)	84.0%
COCC(=O)Nc1nnc(SCC(=O)NCc2cccs2)s1	-7.0%
Cc1ccccc1OCc1nc(-c2ccccc2)no1	7.9%
COCCn1c(C)cc(C(=O)COC(=O)c2ccc3ncsc3c2)c1C	72.0%
CCOC(=O)N1CCN(S(=O)(=O)c2ccc(C(=O)Nc3ccc(F)cc3F)cc2)CC1	30.9%
O=C(c1ccc(C(=O)N2CCOCC2)nc1)N1CCOCC1	-4.4%
Cn1c(Cl)cnc1C(O)c1ccccc1 (centres undefined)	2.2%
CC1Cc2ccccc2N1C(=O)CN1C(=O)CN(C)C(=O)c2ccccc21 (centres undefined)	21.9%
CCOC(=O)c1cc2occc2n1CCCN1C(=O)c2ccccc2C1=O	u
Cc1noc(COc2ccccc2OCC(N)=O)c1Cl	8.7%
CC1(c2ccccc2)NC(=O)N(CC(=O)N2CCOCC2)C1=O (centres undefined)	3.6%
CC12CN(C(=O)c3ccco3)CC(c3ccccc3)(CN(C(=O)c3ccco3)C1)C2=O	8.1%
COC(=O)c1cn(C)c2ccc(S(=O)(=O)N3CC(C)CC(C)C3)cc2c1=O (centres undefined)	29.3%
Cc1ccccc1-n1c(=O)cc(N2CCCCCC2)[nH]c1=O	6.6%
N#Cc1ccc(-c2ccco2)nc1SCc1ccccc1	-1.1%
COc1ccc(OC)c(C2CC(=O)N3CN(c4ccc(C)c(Cl)c4)CSC3=C2C#N)c1 (centres undefined)	-7.6%
Cc1nc(NC2=NCN(Cc3cccnc3)CN2)nc2ccccc12	-11.6%
O=C(c1ccco1)N1CCCC(c2nc(-c3ccc(S(=O)(=O)NCc4ccccc4)cc3)no2)C1 (centres undefined)	0.8%
CCCCCn1c(CN2CCN(Cc3ccccc3)CC2)nc2c1c(=O)[nH]c(=O)n2C	101.6%
COCCCn1c(-c2ccccc2Cl)n[nH]c1=S	2.8%
O=C(CCN1C(=O)c2ccccc2C1=O)N1CCN(c2ccccn2)CC1	15.9%
Cn1cccc1C(=O)N1CCC2(CCN(Cc3nccs3)CC2)CC1	21.2%
O=C(OCCN(C1=NS(=O)(=O)c2ccccc21)c1ccc(Cl)cc1)c1ccco1	7.6%
CCOC(=O)N1CCN(C(=O)NC23CC4CC(CC(C4)C2)C3)CC1	-5.5%
CC(C)(C)n1ncc2c(=O)n(CC(=O)OCc3ccccc3)cnc21	17.2%
CCC(=O)Nc1ccc(NC(=O)c2ccco2)c(OC)c1	-1.2%
CCCNc1ncccc1C(N)=O	0.3%
O=C(COc1ccccc1Br)c1ccc(O)cc1O	-4.9%
CC1(C)CC(=O)C(C=NCC2CCCO2)=C(O)C1 (centres undefined)	2.0%
COCc1cc(C)nc(SCC(=O)NCc2ccco2)c1C#N	-5.4%
COc1ccccc1C(=O)NC(C)C(c1cccs1)N1CCOCC1 (centres undefined)	38.5%
C=C1CC2C=C(NC(C)=O)CC(C1)C2 (centres undefined)	6.9%
O=C(O)c1ccccc1C(=O)NCc1ccc(F)cc1	-2.8%
N#Cc1c(-c2cccs2)cc(-c2cccnc2)nc1N	26.6%
O=C(OCC#CCSc1nc2ccccc2o1)c1ccco1	-5.6%
The results go on:
SMILES	AmpC nodet inh
NC(=O)CC(NC(=O)OCc1ccccc1)C(=O)O (centres undefined)	-3.8%
Cc1cc(C)cc(-n2nnnc2SCC(=O)Nc2cccc(NC(=O)c3ccco3)c2)c1	u
O=C(c1cnccn1)N1CCC[C@@]2(CCN(Cc3nccs3)C2)C1	30.3%
CSC1=N/C(=C\C=C\c2cccs2)C(=O)S1	-9.6%
O=C(O)CN1C(=O)Nc2ccc(Br)cc2C1c1ccccc1 (centres undefined)	-12.2%
Cc1ccc(-n2ncc(C#N)c2/N=C/N2CCOCC2)cc1	38.4%
CCOC(=O)c1[nH]c(C)c(/C(O)=C2\C(=O)C(=O)N(CCN(C)C)C2c2ccco2)c1C (centres undefined)	7.5%
O=C(NCCOC(=O)C1COc2ccccc2O1)C1COc2ccccc2O1 (centres undefined)	68.3%
CCOC(=O)N1CCC(NC(=O)CSCc2nc(-c3sccc3C)oc2C)CC1	118.0%
